Compound activity deposited in PubChem by Center for Chemical Genomics, University of Michigan.
HIV TAR-Tat: HIV-1 TAR-Tat binding disruption; AID 1259389; z-score (no concentration beside the values); HIV-1 TAR RNA, Tat peptide displacement FRET; hits give high values; 100,000 tested, 0.6% active;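 further: score is relative to mean and SD of negative controls; some compounds called inactive have numbers as strong as hits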
CDC25B-CDK2 inh: human CDC25B-CDK2/CyclinA binding inhibition. HTRF CDC25B-CDK2/CyclinA binding, anti-His/anti-Flag; hits give high values. P30305+P24941. z-score (test concentration not listed). 94,000 tested, 0.72% active;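 further: score is relative to mean and SD of negative controls; strong numbers were not always called active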
* hit, by the source's call; . = not tested or not shown.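 How the source made its calls: active means z-score from 3 up in half or more of its runs; inactive means the rest.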

Below each SMILES: HIV TAR-Tat	CDC25B-CDK2 inh
> NC(=O)C1CCN(C(=O)c2ccc3c(c2)sc2nc(-c4ccc(F)cc4)cn23)CC1
  1.6	.
> Cc1ccccc1Cn1c(/C=C/c2ccco2)nc2ccccc21
  -6.7	3.5*
> CCc1ccc(S(=O)(=O)N2c3ccccc3NC3=C(C(=O)CCC3)C2c2ccco2)cc1 (configuration not stated)
  -4.9	.
> CN(C)CCNC(=O)c1ccc2c(c1)nc1n2CCCC1
  1.4	.
> O=C(O)CCCNc1cc(N2CCN(C3CCCCC3)CC2)c2noc3c2c1C(=O)c1ccccc1-3
  -3.4	13*
> O=C(Nc1ccc(Cl)cc1)Nc1ccc2ncccc2c1
  .	0.08
> COc1ccc(-c2cccc(NS(=O)(=O)c3ccc4c(c3)CCCC4)c2)nn1
  0.83	.
> Cc1ccc(-c2cc3ncc(C(=O)c4ccccc4O)cn3n2)cc1
  0.08	-0.58
> CCOC(=O)c1[nH]c2ccc(F)cc2c1NC(C)=O
  1.8	-0.5
> Cc1nc2scc(C)n2c(=O)c1S(=O)(=O)N1CCN(c2ccccc2)CC1
  0.5	-1
> COc1ccc(-c2cc3nc(C)cc(N4CCN(C)CC4)n3n2)cc1OC
  3.1	-1.3
> COc1ccc(NC(=O)C(C)Sc2nnc(Cc3c(C)nc4ccccn4c3=O)n2C)cc1 (configuration not stated)
  -0.14	16*
> C#CCn1c(CCCO)nc2ccccc21
  0.54	1.1
> Cc1c(C(=O)N2CCOCC2)oc2c1-c1nn(CC(=O)NC3CCCC(C)C3C)cc1CC2 (configuration not stated)
  -2.2	.
> CC1CCCN(Cc2nnc(-c3ccccc3)o2)C1 (configuration not stated)
  0.66	1.4

Continued:
Below each SMILES: HIV TAR-Tat	CDC25B-CDK2 inh
> CCOC(=O)c1cc(C(=O)OC)c(C)nc1N1CCC(NC2CCCCC2O)CC1 (configuration not stated)
  .	-2.3
> CCOc1cc(C(=O)Nc2ccc3oc(-c4cccc5c(Br)cccc45)nc3c2)cc(OCC)c1OCC
  .	-3.1
> Cc1ccc(NC(=O)Nc2ccc(C(F)(F)F)cn2)cc1Cl
  .	-1.2
> CN(C)c1ccc(-n2nnnc2SCc2ccc(Cl)cc2)cc1
  .	-1.6
> CCOc1ccc(CNc2nc3ccc(C)cc3n3cnnc23)cc1OC
  0.71	-1.2
> O=C(c1cc2c(s1)-c1ccc(Cl)cc1S(=O)(=O)C2)N1CCN(c2ccccn2)CC1
  1.5	0.14
> Cn1c(=O)n(C)c2cc(N3CCCCC3)c(NS(C)(=O)=O)cc21
  0.36	-1.2
> CCCOC(=O)C1=C(C)NC2=C(C(=O)CC(C)(C)C2)C1c1ccccc1OCC (configuration not stated)
  0.39	-1.6
> CN1CCN(C(=O)CC(=O)Nc2ccc3nc4n(c(=O)c3c2)CCCCC4)CC1
  .	0
> CCCCNc1nc(N2CCCC2)c2cnn(C)c2n1
  2.4	.
> COC(=O)c1ccc(S(=O)(=O)N(Cc2ccccc2)Cc2ccccc2)n1C
  .	-1
> O=C(CS(=O)(=O)c1ccc(Cl)cc1)Nc1nnc(-c2cccs2)o1
  0.88	.
> CN(CC(=O)NCc1cccs1)S(=O)(=O)c1ccc2c(c1)CCC(=O)N2
  .	0.1
> O=c1cccc(-c2ccc(Br)cc2)o1
  .	0.15
> Cc1nc(S(=O)(=O)NCc2ccc(Cl)cc2)cn1C
  2.2	.

Sorted by molar mass (ascending): part of the list above
Below each SMILES: HIV TAR-Tat	CDC25B-CDK2 inh
> CCCCNc1nc(N2CCCC2)c2cnn(C)c2n1
  2.4	.
> O=C(CS(=O)(=O)c1ccc(Cl)cc1)Nc1nnc(-c2cccs2)o1
  0.88	.
> CN(CC(=O)NCc1cccs1)S(=O)(=O)c1ccc2c(c1)CCC(=O)N2
  .	0.1
> CN1CCN(C(=O)CC(=O)Nc2ccc3nc4n(c(=O)c3c2)CCCCC4)CC1
  .	0
> CCOc1cc(C(=O)Nc2ccc3oc(-c4cccc5c(Br)cccc45)nc3c2)cc(OCC)c1OCC
  .	-3.1

Following part:
Below each SMILES: HIV TAR-Tat	CDC25B-CDK2 inh
> Cn1cccc1-c1cc2n(n1)CCC(=O)N2CCCC(=O)NCCc1ccco1
  -0.18	.
> COc1ccc(-n2ncc3c(N4CCC5(CC4)OCCO5)ncnc32)cc1
  .	-1.8
> CS(=O)(=O)c1nc(S(=O)(=O)c2ccc(Cl)cc2)c(N2CCCC2)s1
  0.65	0.81
> CSc1ncc(Cl)c(C(=O)NCc2ccc3c(c2)OCO3)n1
  0.53	-3
> C=CCOc1ccc(C2CC(=O)Nc3n[nH]c(-c4ccc(Cl)cc4)c32)cc1OC (configuration not stated)
  3.4	1.6
> O=C(Cn1nc(C(F)(F)F)c2c1CCCC2)Nc1ccc(Br)cc1
  0.71	1.2
> O=C(NCCc1ccc(Cl)cc1)NC1COc2ccccc2C1 (configuration not stated)
  0.84	.
> CCOC(=O)c1c(NC(C)=O)sc2c1CCC(C(C)(C)C)C2 (configuration not stated)
  -0.07	-0.19
> COc1ccc(OC)c(C2CC(=O)C3=C(C2)NC(=O)CC3c2cccc(O)c2)c1 (configuration not stated)
  2	-2.2
> COc1ccc(C(=O)c2cn(Cc3cccc(F)c3)c3cc4c(cc3c2=O)OCCO4)cc1
  2.7	-1.8
> O=C(Nc1ccc(F)c(Cl)c1)c1cc2ccccc2oc1=O
  .	-1.6
> COc1cc(C2c3c(oc4ccccc4c3=O)C(=O)N2Cc2ccccc2Cl)ccc1O (configuration not stated)
  -0.14	2.1
> COc1ccc(C2C(C(=O)OC(C)C)=C(C)NC3=C2C(=O)CC(c2ccc(Cl)cc2)C3)c(OC)c1 (configuration not stated)
  0.9	-2.3
> CSc1cccc(NC(=O)CCc2nc3sc4c(c3c(=O)[nH]2)CCCC4)c1
  -1.3	.
> COc1ccc(CNc2nc(-c3cc(OC)ccc3OC)no2)cc1
  1.6	.

(list continues)
Below each SMILES: HIV TAR-Tat	CDC25B-CDK2 inh
> O=C1N(CCCc2ccccc2)c2ccccc2C1(O)c1c[nH]c2ccccc12 (configuration not stated)
  3.6	0.13
> CCOC(=O)/C(C)=N/Nc1cc(C(F)(F)F)ccc1N1CCOCC1
  .	-1.1
> Cc1cc(OCc2nc(-c3ccccc3)no2)c(C)cc1Br
  -0.83	-1.3
> O=C(O)c1cccc(Cn2ccc([N+](=O)[O-])n2)c1
  0.04	-0.83
> CCOC(=O)c1ccc(Oc2ncnc3sc(C(=O)OCC)c(C)c23)cc1
  -0.24	.
> O=C(CN1C(=O)COc2ccc(S(=O)(=O)N3CCCCCC3)cc21)N1CCC2(CC1)OCCO2
  .	-1.2
> CC(=O)OCc1cc(=O)n2c(C)csc2n1
  0.19	.
> Cc1cccc(-c2nc3scc(CCNS(=O)(=O)c4ccc(Br)cc4)n3n2)c1
  2.4	.
> Nc1c(-c2nc(-c3ccc(Br)cc3)no2)nnn1-c1ccccc1
  -0.87	.
> CCc1ccc(N2C(=O)CN(Cc3cccs3)C2=S)cc1
  .	-1.2
> Cc1ccc(-c2nc3cnccn3c2Nc2ccccc2C)o1
  -1.7	-1.1
> Cc1cccn2c(=O)c3cc(C(=O)N4CCN(C(=O)c5ccco5)CC4)n(C)c3nc12
  .	-0.82
> CCOC(=O)c1c(C)[nH]c(C)c1S(=O)(=O)Nc1ccc(Cl)cc1F
  1.8	.
> O=C(CSc1ccc(F)cc1)Nc1nc(-c2ccccn2)cs1
  0.92	.
> CCCSCCCNC(=O)C1=Cc2cc(Br)ccc2OC1
  0.28	.

(cont.)
Below each SMILES: HIV TAR-Tat	CDC25B-CDK2 inh
> C=CCOc1cccc(C(Nc2cc(C)ccn2)c2ccc3cccnc3c2O)c1 (configuration not stated)
  2.2	-2.7
> CCC(C(=O)OCc1cc(=O)n2nc(-c3cccs3)sc2n1)c1ccccc1 (configuration not stated)
  0.84	.
> COc1ccc(S(=O)(=O)NCc2cccnc2)cc1Br
  -0.26	-0.54
> O=C(Cn1c(=O)sc2ccccc21)Nc1ccc(S(=O)(=O)N2CCCC2)cc1
  -0.22	-0.61
> CCCOC1C=CC(Oc2nc(NCC)cc(N(C)C)n2)=NN1 (configuration not stated)
  -1.4	0.1
> Cc1nc(C(F)(F)F)c(C(=O)NNc2ncc(C(F)(F)F)cc2Cl)s1
  .	-1.5
> CC1(C)CCc2cc(/C=N/NC(=O)c3ccc(Cl)cc3)ccc2O1
  .	-1.5
> COc1ccc(OC)c(-c2nc3ccc4ccccc4c3c3c2CCC3)c1
  .	-2
> Cc1nc2ccccc2n1CCNC(=O)c1cnccn1
  0.85	.
> CC(C)NC(=O)c1[nH]nc2c1CCc1ccccc1-2
  -0.02	.
> COc1ccc(-n2nc(C)c3c(C(F)(F)F)cc(-c4cccnc4)nc32)cc1
  -1	-0.61
> Brc1ccc(-c2noc(CSc3nc4ccccc4[nH]3)n2)cc1
  -0.49	0.56
> O=c1c2[nH]c3ccccc3c2ncn1CCCN1CCN(C2CCCCC2)CC1
  3.1	-1.9
> O=S1(=O)N=CN(Cc2cccc(F)c2)c2ccccc21
  .	-0.7
> CCCn1c(=O)c2sccc2n2c(CCCC(=O)N3CCC(C)CC3)nnc12
  0.57	.

(more compounds)
Below each SMILES: HIV TAR-Tat	CDC25B-CDK2 inh
> CC(C)(C)C(=O)OCc1cc(=O)n2nc(C3CC3)sc2n1
  -0.16	.
> CC(C)(C)NS(=O)(=O)c1ccc2c(c1)CCN2
  1.2	.
> O=C(NC1CCCCC1)c1cnn2c3c(cnc12)CCCCCC3
  0.1	.
> Cc1ccccc1CNc1nc2nc3c(c(=O)n2[nH]1)CCC3
  -1.4	-0.4
> Cc1cccc(Oc2ncnc3sc(C)c(C)c23)c1
  3	-1.4
> O=C1CC(c2ccccc2)S(=O)(=O)c2ccccc2N1Cc1ccccc1F (configuration not stated)
  0.23	-0.5
> CCN(CC)c1ncnc2scc(C3COc4ccccc4O3)c12 (configuration not stated)
  .	-1.2
> O=c1[nH]nc(SCCS(=O)(=O)c2ccc(F)cc2)n1C1CC1
  .	-8.5
> Cn1nc(-c2ccccc2)c(-c2ccccc2)c(C(=O)Nc2ccccc2C(N)=O)c1=O
  1.4	-0.52
> CCN1C(SCc2ccccc2C)=NS(=O)(=O)c2ccccc21
  1.4	.
> COc1ccc(-c2nc(NCCc3ccccc3)c3ccccc3n2)cc1
  1.5	.
> CCOC(=O)Cn1c(=O)cc(C)c2c(C)nn(C)c21
  -0.28	.
> COc1ccc(S(=O)(=O)NCc2ccccn2)cc1OC
  -0.46	0.8
> Cc1ccc2c(c1)C(Cc1nc3ccccc3c(=O)n1CCc1ccccc1)C(=O)N2 (configuration not stated)
  2.2	1.3
> O=C(CCCCCn1c(=S)[nH]c2cc3c(cc2c1=O)OCO3)NCC1CCCO1 (configuration not stated)
  .	-2.3

Additional structures
Below each SMILES: HIV TAR-Tat	CDC25B-CDK2 inh
> Cc1ccc(C)c(C(=O)CSc2n[nH]c(-c3ccco3)n2)c1
  .	8.7*
> Cc1csc2nc(CNS(=O)(=O)c3cccs3)cn12
  .	-3.4
> COC(=O)c1cc(NC(=O)c2ccc(-c3cccc([N+](=O)[O-])c3)o2)cc(C(=O)OC)c1
  .	-2.6
> COCCn1c(=O)c2c(nc3n2CCN3c2ccc(Cl)cc2)n(C)c1=O
  2.4	.
> CNc1sc2c(O)cc(=O)[nH]c2c1C#N
  .	-0.84
> COc1ccc(Cn2cc(C(=O)c3ccc(F)cc3)c(=O)c3cc4c(cc32)OCCO4)cc1
  2.9	-0.62
> O=C(c1ccc(Cl)cc1)N1CCN(c2c(Cl)cncc2Cl)CC1
  .	-1.1
> CC(C)Nc1nc(N2CCN(CCO)CC2)nc2c1cnn2C
  1.8	.
> CCNc1nc(Oc2ccc(OCC)nn2)nc(N2CCOCC2)n1
  .	-1.6
> Cn1cnc(S(=O)(=O)Nc2ccc(F)c(F)c2)c1
  2.2	.
> COc1ccc(-c2nc(-c3ccccc3Cl)no2)cc1OC
  0.93	-0.45
> O=C(Cn1c(=O)oc2ccccc21)N(Cc1ccco1)C1CCCCC1
  2.1	.
> O=C(c1ccccc1Br)N(Cc1ccco1)Cc1ccccc1Cl
  1.5	0.69
> CCc1nn2c(=O)cc(CSCC(=O)Nc3cc(C)cc(C)c3)nc2s1
  0.6	.
> CCCCN1C(=O)N(c2nnc(C(C)(C)C)s2)C(=O)C1c1ccc(F)cc1 (configuration not stated)
  .	0.59

Further records
Below each SMILES: HIV TAR-Tat	CDC25B-CDK2 inh
> COCCCNC(=S)NNC(=S)NCCCOC
  .	-1.2
> CC1=C(c2ccc(C)cc2)S(=O)(=O)N=C1Nc1cccc(C)c1C
  -0.96	-1.7
> COc1cc(C2/C(=C(\O)c3ccc(Cl)cc3)C(=O)C(=O)N2Cc2cccnc2)ccc1O (configuration not stated)
  -0.87	-3.6
> O=C1c2ccccc2C(=O)N2CC3(c4ccccc4)CN1CC(c1ccccc1)(C2)C3=O
  0.68	-1.8
> O=C1OC(Nc2cccc(Cl)c2)c2ccccc21 (configuration not stated)
  1.8	-1
> CCOC(=O)c1nc(-c2cccs2)no1
  .	-3.9
> Cc1nc(SCC(=O)Nc2ccc(F)cc2)c2c(=O)n(C)c(=O)n(C)c2n1
  .	-2.9
> Cc1nc(Oc2cccnc2)c2c(C)c(C)sc2n1
  0.69	.
> CSC(=NCCC1CC1(Cl)Cl)NC#N (configuration not stated)
  .	-1.6
> O=C1O[C@@H]2C[C@H]3C[C@@H]2[C@@H]1[C@H]3C(=O)N1CC=C(c2ccccc2)CC1
  2.5	-1.2
> CCn1c2ccccc2c2ccc(/C=N/NC(=O)c3ccc(O)cc3O)cc21
  .	1.2
> CC(=O)Oc1c2c(c[n+](C)c1C)COC(C)(C)OC2
  .	0.95
> COc1cccc(C2C(C#N)=C(N)Oc3ccc4ccccc4c32)c1 (configuration not stated)
  .	-0.5
> COc1ccc(OCC(O)Cn2c(N3CCCC3)nc3c2c(=O)n(C)c(=O)n3C)cc1 (configuration not stated)
  .	-1
> Cc1ccc(S(=O)(=O)N2N=C(C3CCCCC3)CC2(O)C(F)(F)F)cc1 (configuration not stated)
  .	-0.24
> O=C(NCCO)c1nn(-c2ccc(Cl)cc2)nc1CO
  -0.44	0.71
> O=S(=O)(c1cccc(F)c1)N(Cc1cc(CN2CCOCC2)cs1)c1ccc(Cl)cc1
  -1.2	.
